Ecoli rRNA inh – inhibitors of bacterial rRNA selective over humanized ribosomes; E. coli WT GFP vs humanized-ribosome RFP mutants, fluorescence, 24 h; stronger effect = lower value; DMSO median 0, no signal -100; GFP signal change (wild-type ribosome), % (concentration not given with the values); actives 1.6% (n = 350,000); AID 720706;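 active = significant combined selectivity score with lowered wild-type GFP, culture density cut under 30%, mutant RFP and density less affected; inactive = any of these conditions unmet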; note: one replicate is shown; some compounds called inactive have numbers as strong as hits
Ecoli rRNA inh OD600 – second read-out of Ecoli rRNA inh, no call of its own (marks repeat the call); OD600 change, %; measured here: OD600 growth;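 optical density of the mix in the first replicate; 0 = DMSO median and -100 = no signal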
Ecoli rRNA inh RFP – second read-out of Ecoli rRNA inh, no call of its own (marks repeat the call); RFP signal change, %; measured here: RFP humanized mutant strains;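 first replicate; 0 = DMSO median and -100 = no signal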
Active calls of the source: *; & = joins results of further samples. An excerpt, so the mix of outcomes need not match the whole.

structure,Ecoli rRNA inh,Ecoli rRNA inh OD600,Ecoli rRNA inh RFP
CC(=O)N1CCN(S(=O)(=O)c2cccc(C(=O)OCc3ccc(F)cc3)c2)CC1,-3,-15,3.1
CCC(c1nnnn1-c1c(C)cccc1C)N1CCN(c2ccccn2)CC1 (stereo unspecified),-35,-65,1.7
CC(C)NC(=O)N1CCCCN2[C@H](C1)[C@H](c1ccc(Br)cc1)[C@@H]2CO,-1,-11,-4.2
CNc1cc(-c2ccc(CC#N)cc2)ncn1,7,22,-2.0
CC(C)N1CCC(C)(C(=O)Nc2cccc(Oc3ccccc3)c2)C1 (stereo unspecified),7,12,3.9
CC(=O)Nc1ccc(S(=O)(=O)NCC2CCN(C(=O)C(=O)c3cc4ccccc4o3)CC2)cc1,1,-5,2.1
O=C(C[C@@H]1CC[C@H](NC(=O)Nc2cc(F)ccc2F)[C@H](CO)O1)Nc1ccc(-c2ccccc2)cc1,-6,-10,2.0
C[C@@H]1CN([C@@H](C)CO)S(=O)(=O)c2ccc(C#Cc3ccc(F)cc3)cc2O[C@H]1CN(C)S(C)(=O)=O,-5,-22,11
COc1ccc(CNC(=O)OC23CN(C(=O)OC(C)C)N(C(=O)OC(C)C)CC2(O)CN(S(=O)(=O)c2ccc(C)cc2)C3)cc1OC (stereo unspecified),-1,-10,0.6
C[C@@H]1CN([C@H](C)CO)S(=O)(=O)c2ccc(C3=CCCC3)cc2O[C@H]1CN(C)S(=O)(=O)c1ccc(F)cc1,-2,-5,-0.2
C[C@@H]1CN([C@H](C)CO)C(=O)c2cc(NS(C)(=O)=O)ccc2O[C@@H]1CN(C)Cc1ccc(Oc2ccccc2)cc1,-1,-9,1.2
O=C(N[C@@H]1CC[C@@H](CCNS(=O)(=O)c2ccc(F)cc2)O[C@@H]1CO)C1CCOCC1,4,2,-1.4
COc1cccc(-c2ccc(C3[C@@H]4CN(C(=O)C5CCCCC5)C[C@H]3N4)cc2)c1 (stereo partly specified),-55&-54,-78&-70,-4.1&-9.5
CC1(C(=O)NS(=O)(=O)c2ccccc2Cl)CCN1C(=O)Cc1cccc2ccccc12 (stereo unspecified),-11,0,-2.0
CCCC#Cc1cnc2c(c1)C(=O)N([C@H](C)CO)C[C@@H](C)[C@H](CN(C)S(=O)(=O)c1ccccc1)O2,0,-3,1.9
CO[C@@H]1CN(C)C(=O)c2ccc(NS(=O)(=O)c3cn(C)cn3)cc2OC[C@H](C)N(Cc2cccc(F)c2)C[C@H]1C,-3,-7,2.1
CO[C@H]1CN(C)C(=O)c2cc(NC(=O)Nc3cc(F)ccc3F)ccc2OC[C@H](C)N(C)C[C@H]1C,-2,-2,-0.3
COc1cccc(NC(=O)Nc2ccc3c(c2)C(=O)N(C)C[C@H](OC)[C@@H](C)CN(C)[C@@H](C)CO3)c1,1,1,-1.0
CO[C@@H]1CN(C)C(=O)c2ccc(NC(=O)c3ccccc3)cc2OC[C@@H](C)N(CC2CC2)C[C@H]1C,1,1,0.4
COC(=O)C[C@@H]1CC[C@H]2[C@H](COc3ccc(NC(=O)c4ccccc4)cc3C(=O)N2C)O1,-7,-1,-0.1

Whole records, quoted from the list. Order of values: Ecoli rRNA inh	Ecoli rRNA inh OD600	Ecoli rRNA inh RFP
`CO[C@@H]1CN(C)C(=O)c2ccc(NC(=O)c3ccccc3)cc2OC[C@@H](C)N(CC2CC2)C[C@H]1C` is entered as 1	1	0.4
`C[C@@H]1CN([C@H](C)CO)C(=O)c2cc(NS(C)(=O)=O)ccc2O[C@@H]1CN(C)Cc1ccc(Oc2ccccc2)cc1` is entered as -1	-9	1.2
`CC(=O)N1CCN(S(=O)(=O)c2cccc(C(=O)OCc3ccc(F)cc3)c2)CC1` is entered as -3	-15	3.1
`CO[C@@H]1CN(C)C(=O)c2ccc(NS(=O)(=O)c3cn(C)cn3)cc2OC[C@H](C)N(Cc2cccc(F)c2)C[C@H]1C` is entered as -3	-7	2.1

Only Ecoli rRNA inh OD600 and Ecoli rRNA inh (2 entries from above):
Structure | Ecoli rRNA inh OD600 | Ecoli rRNA inh
COc1cccc(-c2ccc(C3[C@@H]4CN(C(=O)C5CCCCC5)C[C@H]3N4)cc2)c1 (stereo partly specified) | -78&-70 | -55&-54
CC1(C(=O)NS(=O)(=O)c2ccccc2Cl)CCN1C(=O)Cc1cccc2ccccc12 (stereo unspecified) | 0 | -11

Continued.
structure,Ecoli rRNA inh,Ecoli rRNA inh OD600,Ecoli rRNA inh RFP
COc1ccc(NC(=O)N(C)C[C@@H]2Oc3ccc(NC(=O)C4CC4)cc3C(=O)N([C@@H](C)CO)C[C@@H]2C)cc1,6,8,3.3
O=C(NCC[C@H]1CC[C@@H](NC(=O)c2cnccn2)[C@H](CO)O1)c1ccc2c(c1)OCO2,1,4,-0.4
O=C(C[C@H]1C=C[C@H](NS(=O)(=O)c2ccc(F)cc2)[C@H](CO)O1)N1CCC(Cc2ccccc2)CC1,-2,-11,-0.4
CN1C(=O)c2cc(NC(=O)c3cccs3)ccc2OC[C@@H]2O[C@@H](CC(=O)NCC(F)(F)F)CC[C@H]21,1,5,-2.1
C[C@@H]1CN([C@H](C)CO)C(=O)c2cc(-c3cccc(C#N)c3)cnc2O[C@H]1CN(C)C(=O)c1ccccn1,4,10,-1.5
COc1ccc(S(=O)(=O)N(C)C[C@@H]2Oc3c(NS(C)(=O)=O)cccc3C(=O)N([C@H](C)CO)C[C@@H]2C)cc1,-2,1,-0.9
CO[C@@H]1CN(C)C(=O)c2cc(NC(=O)Nc3ccccc3F)ccc2OC[C@@H](C)N(CC2CC2)C[C@@H]1C,1,4,0.9
COCCNC(=O)C[C@@H]1CC[C@@H](NC(=O)NC2CCCC2)[C@@H](CO)O1,0,0,-1.1
CCCN(C)C[C@@H]1Oc2ncc(-c3cccc(C(=O)N(C)C)c3)cc2C(=O)N([C@H](C)CO)C[C@@H]1C,7,17,-3.2
COc1ccc(NC(=O)N(C)C[C@@H]2Oc3ccc(NC(=O)Nc4ccc(F)cc4)cc3CC(=O)N([C@H](C)CO)C[C@H]2C)cc1,-3,-1,-1.3
C[C@H]1CN([C@@H](C)CO)C(=O)c2cc(NC(=O)Nc3ccc4c(c3)OCO4)ccc2O[C@H]1CN(C)Cc1ccc(C(=O)Nc2ccccc2N)cc1,0,-2,0.2
CC(C)NC(=O)N(C)C[C@@H]1Oc2ccc(NC(=O)Cc3cn(C)c4ccccc34)cc2C(=O)N([C@H](C)CO)C[C@H]1C,0,7,-0.6
O=C(C[C@H]1CC[C@H]2[C@@H](COC[C@@H](O)CN2C(=O)c2ccc3c(c2)OCO3)O1)NC1CCC1,0,13,4.4
C[C@@H]1CN([C@@H](C)CO)C(=O)c2cc(NS(=O)(=O)c3cn(C)cn3)ccc2O[C@@H]1CN(C)S(=O)(=O)c1ccc(Cl)cc1,-1,1,0.4
C[C@@H]1CN([C@@H](C)CO)C(=O)c2cc(NC(=O)Nc3ccc(C(F)(F)F)cc3)ccc2O[C@H]1CN(C)S(C)(=O)=O,-5,-12,2.2
C[C@H](CO)N1C[C@H](C)[C@@H](CN(C)C(=O)Nc2cc(F)ccc2F)Oc2cc(C#CC3CC3)ccc2S1(=O)=O,2,8,-2.2
COc1ccc(-c2csc(C(C)(O)c3ccncc3)n2)cc1OC (stereo unspecified),5,5,4.8
CO[C@H]1CN(C)C(=O)c2cc(NC(=O)C3CCCCC3)ccc2OC[C@H](C)N(Cc2nccs2)C[C@@H]1C,-3,-6,3.3
CC(C)NC(=O)N(C)C[C@H]1Oc2ccc(NC(=O)CCCN(C)C)cc2C(=O)N([C@H](C)CO)C[C@@H]1C,1,6,0.0
COc1ccc(CN(C)C[C@@H]2OCCCC[C@@H](C)Oc3ccc(NC(=O)Nc4c(C)noc4C)cc3C(=O)N([C@H](C)CO)C[C@H]2C)cc1,3,5,-0.6
CCc1nc2ccc(C(=O)NCc3ccc4c(c3)OCO4)cn2c1N(C)C(=O)Cc1ccccc1,12,-2,4.8
O=C(c1ccccn1)N1CC2(C1)[C@@H](c1ccccc1)[C@@H](CO)N2C(=O)C1CCCC1,2,9,-0.2
Cc1ccccc1-c1ccc([C@H]2[C@H](CO)N3CCCCN(C(=O)Nc4ccc(F)cc4)C[C@@H]23)cc1,-57,-69,-11
C[C@@H]1CCCCO[C@H](CN(C)Cc2ccc(C(F)(F)F)cc2)[C@H](C)CN([C@@H](C)CO)C(=O)c2cc(NC(=O)NC3CCCCC3)ccc2O1,0,-3,7.1
C[C@H]1CN([C@@H](C)CO)S(=O)(=O)c2ccc(C#Cc3ccc(F)cc3)cc2O[C@@H]1CN(C)C(=O)NC1CCCC1,0,-1,6.2
O=C(C[C@H]1C=C[C@H](NC(=O)C2CC2)[C@H](CO)O1)NCc1ccncc1,1,2,0.2
COc1ccc(CCNC(=O)CC(=O)N/N=C\c2ccc(OCC(N)=O)cc2)cc1OC,0,5,-2.9
N#Cc1ccc(-c2ccc3c(c2)[C@@H]2[C@@H](CCN2Cc2cncnc2)[C@@H](CO)N3)cc1,21,10,-0.3
O=C(C[C@@H]1C=C[C@@H](NS(=O)(=O)c2ccc(F)cc2)[C@H](CO)O1)NCCc1ccncc1,1,-6,-0.6
COc1cccc(CN2CC3(CN(C)C3)c3c([nH]c4cc(OC)ccc34)[C@@H]2CO)c1,3,10,0.6
O=C(C[C@H]1C[C@@H]2c3cc(NC(=O)Nc4ccccc4F)ccc3O[C@@H]2[C@H](CO)O1)NCc1ccc(Oc2ccccc2)cc1,-4,10,0.2
C[C@@H]1CN([C@H](C)CO)C(=O)c2ccccc2-c2ccccc2CO[C@H]1CN(C)S(=O)(=O)c1ccc(F)cc1,0,11,-4.2
CCCNC(=O)C1(C)CCCN(Cc2ccc(-n3ccnc3)cc2)C1 (stereo unspecified),19,13,1.8
CCCCNC(=O)C1(C)CCCCN1C(=O)c1cccc(OC(F)(F)F)c1 (stereo unspecified),-3,-1,2.4
CN1C(=O)c2cc(NC(=O)C3CCCC3)ccc2OC[C@@H]2O[C@@H](CC(=O)NCc3ccccc3F)CC[C@@H]21,-2,0,-3.2
C[C@@H]1CN([C@@H](C)CO)C(=O)c2cc(-c3ccccc3)cnc2O[C@H]1CN(C)C(=O)Cc1cccnc1,-2,0,-5.3
CC(=O)N1CC(=O)N2[C@H](CO)[C@H](c3ccc(C#Cc4cccnc4)cc3)[C@H]2C1,4,-2,0.1
CC(C)NC(=O)N[C@@H]1CC[C@H](CCn2cc(-c3ccc(F)cc3)nn2)O[C@@H]1CO,-1,7,1.5
O=C(C[C@H]1CC[C@H](NS(=O)(=O)c2ccccc2)[C@H](CO)O1)N1CCC(Cc2ccccc2)CC1,-5,-13,12
O=C(C[C@H]1C=C[C@H](NC(=O)Nc2ccccc2F)[C@H](CO)O1)NCc1ccc(-c2ccccc2)cc1,1,5,0.6
O=C(C[C@@H]1C[C@@H]2c3cc(NC(=O)Nc4ccccc4)ccc3O[C@@H]2[C@H](CO)O1)NCc1cccnc1,3,5,-1.8
C[C@H](CO)N1C[C@H](C)[C@@H](CN(C)CC2CCCCC2)Oc2ccc(NS(=O)(=O)c3cccs3)cc2C1=O,4,8,0.5
NCC[C@H]1CC[C@@H](NC(=O)c2ccccc2F)[C@H](CO)O1,4,0,0.8
C[C@H](CO)N1C[C@H](C)[C@@H](CN(C)Cc2ccccc2)OCCCC[C@H](C)Oc2ccc(NS(C)(=O)=O)cc2C1=O,0,5,-2.1
CCS(=O)(=O)Nc1ccc2c(c1)C(=O)N(C)[C@@H]1CC[C@@H](CC(=O)NCc3ccc(OC)cc3)O[C@@H]1CO2,3,8,-1.6
C[C@@H]1CN([C@@H](C)CO)C(=O)c2ccccc2-c2ccccc2CO[C@H]1CN(C)S(=O)(=O)c1ccccc1,-1,0,-1.1
N#C[C@H]1[C@H](c2ccccc2-c2cccc(F)c2)[C@@H](CO)N1C(=O)C1CCCC1,-1,-7,1.5
O=C(Nc1c(-c2ccc(Cl)cc2)[nH][nH]c1=O)c1ccccc1Cl,-18,-17,-4.3
O=C(Nc1ccccc1F)N[C@@H]1CC[C@H](CCNS(=O)(=O)c2ccc(F)cc2)O[C@H]1CO,0,0,1.1
CCCNC(=O)C[C@H]1CC[C@H]2[C@H](COc3ccc(NC(=O)Cc4cccs4)cc3C(=O)N2C)O1,2,4,-1.5
CNC(=O)OC1CC2CC1[C@H]1CCCCN1C2=O (stereo partly specified),21,23,1.5
COc1ccc(NC(=O)Nc2ccc3c(c2)C(=O)N([C@H](C)CO)C[C@H](C)[C@@H](CN(C)C(=O)Nc2c(C)noc2C)OCCCC[C@@H](C)O3)cc1,-2,3,-3.0
CCCCN(C(C)=O)c1c(CC)nc2ccc(C(=O)NCCOc3ccc(OC)cc3)cn12,-3,0,3.1
COc1ccc2c3c([nH]c2c1)[C@H](CO)N(C(=O)Nc1cccc(F)c1)CC31CCN(S(=O)(=O)c2cccc(C)c2)CC1,-6,2,-4.4
CC(=O)N1CC(=O)N2[C@@H](CO)[C@H](c3ccc(-c4ccncc4)cc3)[C@@H]2C1,4,8,-2.6
CCC(=O)N1[C@H](CNC(C)=O)[C@@H](c2ccc(-c3ccc(F)cc3)cc2)[C@@H]1CO,-3,-3,0.0
O=C(C[C@@H]1C=C[C@H](NC(=O)c2cccnc2)[C@H](CO)O1)NCc1ccncn1,2,0,2.4

Source: PubChem
